Source: PubChem
TAR Tat displ = HIV-1 TAR-Tat binding disruption. HIV-1 TAR RNA, Tat peptide displacement FRET; active compounds read high. AID 1259389. z-score (no concentration beside the values). hit rate 0.6% among 100,000;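 note: score is relative to mean and SD of negative controls; some compounds called inactive have numbers as strong as hits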
CDC25B CDK2 inh = human CDC25B-CDK2/CyclinA binding inhibition. z-score (concentration not given with the values). hit rate 0.72% among 94,000. HTRF CDC25B-CDK2/CyclinA binding, anti-His/anti-Flag; active compounds read high. P30305+P24941;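 note: score is relative to mean and SD of negative controls; strong numbers were not always called active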
* hit, by the source's call; nt = no result given.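 Rule for the calls: active = z-score from 3 up in half or more of its runs; inactive = the rest.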

Preview, 4 compounds:
SMILES | TAR Tat displ | CDC25B CDK2 inh
CN(C)c1ccc(/C=C(\C#N)c2nc(-c3ccc(-c4ccccc4)cc3)cs2)cc1 | nt | -1.6
CC(C)NC(=O)NC(=O)c1ccc(Oc2cc(Cl)cc(Cl)c2)c([N+](=O)[O-])c1 | nt | -0.85
Nc1nc(-c2cccnc2)nn1C(=O)c1ccccc1Cl | 0.94 | -1.2
Cc1c(C(=O)N2CCC(C)CC2)c(S(=O)(=O)Nc2ccc3c(c2)OCO3)c(C)n1C | 0.43 | nt

Results, repeating the preview:
SMILES | TAR Tat displ | CDC25B CDK2 inh
CN(C)c1ccc(/C=C(\C#N)c2nc(-c3ccc(-c4ccccc4)cc3)cs2)cc1 | nt | -1.6
CC(C)NC(=O)NC(=O)c1ccc(Oc2cc(Cl)cc(Cl)c2)c([N+](=O)[O-])c1 | nt | -0.85
Nc1nc(-c2cccnc2)nn1C(=O)c1ccccc1Cl | 0.94 | -1.2
Cc1c(C(=O)N2CCC(C)CC2)c(S(=O)(=O)Nc2ccc3c(c2)OCO3)c(C)n1C | 0.43 | nt
Cc1ccccc1C1CC(=O)Nc2nc(N)[nH]c(=O)c21 (centres undefined) | 2.4 | -1.4
O=c1c2ccccc2c(=O)n2n1CC=CC2 | nt | -0.65
O=C(CSc1ccsc1[N+](=O)[O-])Nc1cccc(F)c1 | 5.2* | -2.8
COC(=O)CSC1=C(C#N)C(=O)NC(c2ccccc2O)S1 (centres undefined) | 0.55 | -1.8
O=C(NCCCN1CCCC1=O)C1CCCN(c2nnc(N3CCCC3=O)s2)C1 (centres undefined) | 1.1 | nt
O=C(C1CCN(S(=O)(=O)c2cccc3nonc23)CC1)N1CC=C(c2ccccc2)CC1 | -0.1 | nt
Cc1c(Cl)cccc1-n1nnc(-c2nc(-c3ccc(Cl)cc3)no2)c1N | 0.27 | nt
CCOC(=O)c1cc(NC(=O)c2ccc(C(C)(C)C)cc2)c(=O)n2c1oc1ccccc12 | -3.2 | -0.72
CN1CCN(c2nc3c(c(=O)n(C)c(=O)n3C)n2CCSc2ncccn2)CC1 | nt | -0.89
c1coc(CNc2nc3ccccc3n2CCN2CCCCC2)c1 | -1.4 | 0.28
CC(C)C1Nc2ccc(C(=O)NC3CCCC3)cc2NC1=O (centres undefined) | -0.24 | -1.5
Cc1ccc(Cl)cc1-n1ncc2c(N3CCCC(C)C3)ncnc21 (centres undefined) | 1.8 | nt
O=c1oc2ccccc2c2c1ncn2CCN1CCOCC1 | nt | 0.55
Fc1ccc(CCc2ccc(F)cc2)cc1 | nt | -2.8
O=C(c1ccc(SCCN2CCOCC2)nc1)N1CCCC1 | 1.9 | nt
CCc1nnc(NC(=O)CSc2nc3c(c(=O)n2C)SCC3)s1 | 1.2 | 0.28
CCCSc1nc2ccccc2c(=O)n1C1CCCCC1 | 2 | -0.42
Cc1nn2c(=O)cc(CSc3ccccc3NC(=O)c3cccs3)nc2s1 | 0.41 | nt
CCc1ccc(OCCCCn2ccnc2)cc1 | nt | 0.8
N#C/C(=C\NN1CCCCC1)S(=O)(=O)c1ccc(Cl)cc1 | nt | -3
Cc1ccc(C2NC(=O)NC(O)(C(F)(F)F)C2C(=O)c2ccc(Cl)cc2)cc1 (centres undefined) | nt | 0.66
Clc1ccc(-c2cc(N3CCCCC3)on2)cc1 | -0.38 | -2.1
O=C1CCCN1CCCNc1nc(-c2ccccc2F)no1 | 1 | nt
CCCn1c2ccc(F)cc2c2nnc(SCCN3CCOCC3)nc21 | -1.1 | -2.4
CC(C)NC(=O)C1CCN(c2cnccn2)CC1 | 1.2 | -2.2
CCOC(=O)C(C)Sc1nnc(CSc2nc(C)cc(C)n2)n1-c1ccc(Cl)cc1 (centres undefined) | 0.47 | 0.93
COc1ccc(C2CC(=O)c3cc(-c4nc(-c5ccc(Cl)cc5)cs4)c(=O)[nH]c3C2)cc1 (centres undefined) | -0.14 | -1.1
CCc1nnc(NC(=O)c2cc3c(=O)oc4ccc(C)cc4c3s2)s1 | 0.73 | -0.89
COc1ccc(C(=O)C[n+]2cc(-c3ccccc3)n3c2CCCCC3)cc1OC | 1.4 | -1.6
Cc1ccc(S(=O)(=O)n2nc(C)c(S(=O)(=O)N(C)c3ccccc3)c2C)cc1C | 0.47 | nt
CCOc1ccc(C2c3c(-c4ccccc4O)n[nH]c3C(=O)N2CCO)cc1OCC (centres undefined) | 1.8 | -1.9
CC1CCCCN1S(=O)(=O)c1ccc(N2CCCCS2(=O)=O)cc1 (centres undefined) | -0.21 | nt
CC1=C(C(=O)OCc2ccccc2)C(c2cccc(O)c2)C2=C(CC(c3ccccc3)CC2=O)N1 (centres undefined) | 0.47 | -1.3
O=C(Nc1ccc(Cl)cc1Cl)c1cccc(N2C(=O)C3C4C=CC(C4)C3C2=O)c1 (centres undefined) | nt | -2.5
CCOC(=O)c1sc(-n2cccc2)nc1C | -0.14 | -1.1
O=C(CSc1nc(-c2ccc3c(c2)OCO3)nc2cc(=O)[nH]n12)NCCc1ccccc1 | 2.6 | nt
O=C(c1ccc(Br)cc1)N(Cc1ccco1)Cc1cccs1 | 1.1 | -1.2
Cc1cc(C)c2c(-n3cccc3)nn(CCCC(=O)NCc3ccco3)c2n1 | 0.72 | nt
COCCNC(=O)Cn1cc2c(n1)-c1c(oc(C(=O)N3CCOCC3)c1C)CC2 | 2.7 | nt
O=S1(=O)CCC(S(=O)(=O)Nc2c(F)c(F)c(F)c(F)c2F)C1 (centres undefined) | nt | -1.2
CCOC(=O)N1CCC(NC(=O)c2oc3ccc4c(c3c2C)C(O)CC2(CCCCC2)O4)CC1 (centres undefined) | 2.1 | -2.1
O=C(O)c1cccc(Nc2nc3ccccc3n3nnnc23)c1 | -0.35 | -0.56
Cc1nnc2ccc(N3CCC(C(=O)N4CCN(C(=O)c5ccco5)CC4)CC3)nn12 | 0.58 | nt
CC(=O)O[C@@H]1C=C[C@@]2(C)C(C[C@@H](OC(C)=O)[C@@]3(C)C4=CC(=O)O[C@@H](c5ccoc5)[C@]4(C)CCC23)C1(C)C (some centres undefined) | 1.8 | nt
COc1ccc(C2CC(=O)C3=C(C2)Nc2ncnn2C3c2ccccc2F)cc1 (centres undefined) | -0.41 | -0.74
Cc1onc(-c2c(Cl)cccc2Cl)c1C(=O)NN1C2CSC1CS2 | nt | -2.1
COc1ccc(-n2c(=O)c(C#N)cc3c(=O)n4cccc(C)c4nc32)cc1 | 1.2 | -4.8
Cc1csc(NC(=O)CSc2ccc3nnc(-c4ccccn4)n3n2)n1 | 1.8 | nt
CC1(C)CC(=O)c2sc(NC(=O)c3cccs3)nc2C1 | 0.98 | -0.25
COc1ccc(Nc2cc(C)nc(C)n2)c(OC)c1 | 0.41 | -2.2
Cc1cc(C)cc(OCC(=O)Nc2onc3c2CC(C)CC3)c1 (centres undefined) | 2 | -2.1
CC(C)CC(C(=O)O)N1C(=O)C2CC=C(Cl)CC2C1=O (centres undefined) | 2.1 | -0.26
Cc1ccc(-c2cn3cccnc3n2)cc1NC(=O)CC(C)(C)C | nt | -0.34
COc1cc(C)c2c(c1)C=CC1C2CCC2(C)C(O)CCC12 (centres undefined) | nt | -1.7
O=C(NCCC1=CCCCC1)c1ccc2c(c1)CCN2S(=O)(=O)c1ccc(Br)cc1 | 0.93 | 2.6
COc1ccc(-c2noc(-c3nnn(-c4cccc(Cl)c4)c3N)n2)cc1 | 0.51 | nt

A draw from above in order of number of heavy atoms, high to low:
SMILES | TAR Tat displ | CDC25B CDK2 inh
CC(=O)O[C@@H]1C=C[C@@]2(C)C(C[C@@H](OC(C)=O)[C@@]3(C)C4=CC(=O)O[C@@H](c5ccoc5)[C@]4(C)CCC23)C1(C)C (some centres undefined) | 1.8 | nt
O=C(NCCC1=CCCCC1)c1ccc2c(c1)CCN2S(=O)(=O)c1ccc(Br)cc1 | 0.93 | 2.6
Cc1cc(C)c2c(-n3cccc3)nn(CCCC(=O)NCc3ccco3)c2n1 | 0.72 | nt

Continuation:
SMILES | TAR Tat displ | CDC25B CDK2 inh
O=C1CC(c2nnc(-c3ccccc3)o2)CN1c1ccccc1 (centres undefined) | 0.47 | -0.28
Cc1cc(-c2ccccc2)n(-c2cccc3cccnc23)n1 | 0.23 | 0.96
C=CCN1CN(Cc2ccco2)CNC1=S | nt | -0.8
CCN1C(=O)C(O)(CC(=O)c2ccc3c(c2)OCCO3)c2ccccc21 (centres undefined) | -0.31 | -0.95
Cc1c(/C=C/C(=O)Nc2ccc(F)cc2)sc2ccccc12 | nt | -1.1
Cc1nc(Cn2c(=O)oc3cc(S(=O)(=O)N4CCc5ccccc5C4)ccc32)no1 | 2 | nt
CC(C)c1ccc(C2N3CC4(C)CN2CC(c2ccccc2)(C3)C4=O)cc1 (centres undefined) | 0.95 | -0.71
CCOC(=O)c1oc2ccc3c(c2c1C)C(=O)CC1(CCN(C(=O)OCC)CC1)O3 | 3.3 | -1.1
Clc1cccc(CNc2n[nH]c(-c3ccco3)n2)c1 | -0.73 | -1.7
Cc1ccc(/C(O)=C2/C(=O)C(=O)N(CC(C)O)C2c2ccc(O)cc2)cc1 (centres undefined) | -0.62 | -1.4
O=C(NC1CCS(=O)(=O)C1)c1ccc(Cl)cc1 (centres undefined) | 1.1 | -0.43
COc1ccc(OC)c(NC(=O)C(=O)NCC2CCCO2)c1 (centres undefined) | 2 | -1.7
COc1cc(OC)cc(-c2nnc(Cc3ccc(OC)c(OC)c3)o2)c1 | -0.75 | -1.4
CCCCCCSC1=C(C#N)C(c2ccccc2)CC(=O)N1 (centres undefined) | 2.1 | -1.5
CCCOc1cc2oc(=O)cc(C)c2cc1Cl | nt | -0.62
CC1CCc2c(sc3c2CSC(C(=O)NCc2ccco2)=C3)C1 (centres undefined) | -1.5 | nt
CC1CCN(C(=O)C(CCS(C)(=O)=O)N2Cc3ccccc3C2=O)CC1 (centres undefined) | 0.3 | nt
Cc1c(CC(C)O)c(=O)oc2cc(OC(C)C(=O)O)ccc12 (centres undefined) | nt | 1.2
CC(=O)NC12CC3CC(C1)CC(O[N+](=O)[O-])(C3)C2 | nt | -2.1
CCSC1=N/C(=C\c2cccc(OC(C)=O)c2)C(=O)S1 | 1.2 | -0.43
CCc1c(CN2CCN(c3ccc(F)cc3)CC2)csc1C | 1.6 | nt
Cc1sc(C)c(S(=O)(=O)N2CCC(N3CCCCC3)CC2)c1-c1ccno1 | -1.7 | nt
Cc1c(C(=O)N2CCCC2)c(S(=O)(=O)Nc2ccc(Cl)cc2F)c(C)n1C | 0.57 | nt
CC1CN(S(=O)(=O)Cc2ccccc2)CC(C)O1 (centres undefined) | 0.26 | -0.25
COc1ccc2c(c1)CC(NC(=O)NCc1ccc(OC)c(OC)c1)CO2 (centres undefined) | 1.5 | nt
CCN(Cc1ccccc1)S(=O)(=O)c1ccc(-c2ccc(=O)[nH]n2)o1 | -0.5 | nt
CN(C)c1cccc2c1c(NC(=O)c1cc(Cl)sc1Cl)nn2C | nt | 13*
CC1(C)CC(=O)C2=C(C1)OC(N)=C(C#N)C2c1cc([N+](=O)[O-])cs1 (centres undefined) | nt | -1.9
CN(C)c1ccc(/C=C(\C#N)C(N)=O)c(Cl)c1 | nt | 0.42
CC(C)(C)c1ccc(S(=O)(=O)c2cc3cc(Cl)ccc3oc2=O)cc1 | nt | -0.04
COc1ccc(-n2c(=O)c(C#N)cc3c(=O)n4cccc(C)c4nc32)c(OC)c1 | -2.4 | -2.3
Cc1c(C(=O)N2CCCC2)c(S(=O)(=O)N2c3ccccc3CC2C)c(C)n1C (centres undefined) | 1.3 | nt
CCC(C)NC(=O)N1c2ccccc2Sc2ccccc21 (centres undefined) | -1.2 | 0.83
O=C(NCCN(Cc1ccco1)C1CCCC1)c1ccc2c(=O)n3c(nc2c1)CCCC3 | 2.5 | nt
COCc1cc(C)nc2sc3c(c12)NCN(C1CCCCC1)C3=O | 1.6 | -3
Brc1ccc(CSc2nc3ccccc3o2)cc1 | 0.18 | 0.31
CCn1c2c(c(=O)[nH]c1=O)C(c1ccsc1)C1=C(N2)c2ccccc2C1=O (centres undefined) | -0.58 | 0.49
Cn1ncc2c(Nc3ccc(F)c(Cl)c3)ncnc21 | 0.4 | nt
NC(=O)Cn1c(=O)n(-c2ccc(Cl)cc2)c(=O)c2c3c(sc21)CCC3 | nt | -1.4
Cn1c(=O)c2c(-c3ccc(Br)cc3)n(CCO)cc2n(C)c1=O | 1.7 | -2.2
CCOC(=O)C/C(N)=C(\C#N)C(=O)OCC | nt | -0.03
O=C(Nc1cc(-c2nc3cc(Cl)ccc3o2)ccc1Cl)c1ccco1 | -2.4 | -1.2
CC1(C)CC(=O)C2=C(C1)c1c(ccc3ncccc13)NC2c1ccc(O)c(O)c1 (centres undefined) | 2.5 | -2.2
CCN1C(=O)Cc2cc(NC(=O)C3CCCC3)ccc21 | 0.67 | nt
Cc1scc(CN2CCN(C3CCCCC3)CC2)c1C | 1.1 | nt
Cn1c2c(c(=O)n(C)c1=O)C(c1ccc(OC(=O)c3ccccc3)cc1)C1=C(N2)c2ccccc2C1=O (centres undefined) | -0.68 | -3.6
Cn1c(=O)c2c(-c3ccccc3Br)n(-c3ccccc3)cc2n(C)c1=O | 0.54 | -0.69
CCOC(=O)CN1NC2(CCC(C(C)(C)C)CC2)NC1=S (centres undefined) | nt | -1
CNc1ncccc1-c1nc(-c2ccccc2)no1 | 1.3 | -0.4
Cc1ccc2nc3c(cc2c1)CCN3C(=O)c1ccc(S(=O)(=O)N2CCCC2)cc1 | 0.61 | 1.3
Cc1nc2cc(Nc3nnc(-c4ccc(Cl)cc4)c4ccccc34)ccc2n1C | nt | 14*
C/C(=N\N=C1\NC(=O)C(CC(=O)Nc2cccc(C)c2C)S1)C(C)(C)C (centres undefined) | nt | -0.48
